GLA inh pH 4.5 – blocks human alpha-galactosidase A at pH 4.5; purified enzyme, 4-MU-alpha-Gal fluorescence, pH 4.5; activity change, negative = inhibition, % at 105 µM; AID 1467; 230,000 tested, under 10 active; P06280; inconclusive = small, poorly fitted or top-dose-only inhibition, or a rising curve; inactive = flat fitted curve, though single readings scatter; no compound was filed as active;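 also: 0% = full activity with enzyme and -100% = basal without enzyme; dose as in the result columns while the protocol names 77 µM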
Target sequence (P06280 whole entry, looked up): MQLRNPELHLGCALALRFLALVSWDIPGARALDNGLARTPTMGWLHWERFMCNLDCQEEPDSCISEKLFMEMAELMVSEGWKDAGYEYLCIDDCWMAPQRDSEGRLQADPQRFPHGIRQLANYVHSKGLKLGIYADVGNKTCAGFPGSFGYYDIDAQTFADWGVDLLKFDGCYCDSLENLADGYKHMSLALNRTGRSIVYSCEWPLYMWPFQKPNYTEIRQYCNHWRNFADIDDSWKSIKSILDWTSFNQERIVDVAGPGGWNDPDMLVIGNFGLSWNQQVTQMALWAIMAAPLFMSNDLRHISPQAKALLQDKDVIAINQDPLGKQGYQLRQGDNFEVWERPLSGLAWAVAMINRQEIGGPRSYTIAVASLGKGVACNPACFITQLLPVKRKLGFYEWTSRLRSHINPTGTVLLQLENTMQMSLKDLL
miR-21 reporter – miR-21 reporter, rising signal | HeLa miR-21 FLuc reporter, luciferase, 48 h | Potency, µM (titrated, usually from 38.3 µM), without a hit: at the top dose reporter change, positive = more light | 340,000 tested, under 10 active; active = well fitted rising curve with a large enough effect; inconclusive = small, poorly fitted or top-dose-only effect; inactive = no such curve, though single readings can be large or run the other way;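 also: % of control where 0% means no effect; miR-21 action dims this reporter so a rising signal means less miR-21 action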
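HeLa cells stably expressing CMV-driven firefly luciferase with a downstream miR-21 binding sequence, endogenously expressing miR-21, were treated with titrations (up to about 40uM final) for 48 hours at 37 degree Celsius. Luciferase luminescence was read after lysis.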
Rango dissoc inh – inhibitors of RanGTP-induced Rango-importin beta complex dissociation; Biochemical FRET Rango-importin beta, RanGTP-induced dissociation; Potency, µM (top dose mostly 46.1 µM), without a hit: at the highest dose activity change, negative = inhibition; hit rate 0.071% among 340,000; active means falling FRET ratio curve, often poorly fitted, with flat reads before Ran was added; inconclusive means other falling curves, or compound fluorescence or quenching; inactive means flat or rising ratio curve;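 also: potency is read from the fitted curve at half-maximal effect; % of control where 0% means no effect; nearly all actives have a fitted effect of over 45% in size; -100% = wells without RanGTP and RCC1; the record marks most hits as doubtful in a second field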
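Rango FRET biosensor (snurportin-1 IBB flanked by N-terminal EYFP and C-terminal CFP10) at 0.1 uM, with 0.25 uM importin beta in PBS, 1mM DTT, 0.02% Tween-20, 0.1% BSA. 0.6 uM Ran, 2mM GTP and 0.2 uM RCC1 were then added for 45 min at room temperature. Inhibition read as loss of FRET rise.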
Rango complex inh – Rango-importin beta binding inhibition; Q14974; Rango CFP/YFP FRET sensor + importin beta, 45 min; Potency, µM (top dose mostly 92.2 µM), without a hit: at the top dose inhibition of complex formation; hit rate 0.031% among 340,000; active = rising FRET ratio curve, often small or poorly fitted; inconclusive = mostly compound fluorescence or quenching in the first reads; inactive = flat curves in all reads;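 also: potency is read from the fitted curve at half-maximal effect; 0% = DMSO wells and 100% = buffer wells lacking importin beta; nearly all actives have a fitted effect of over 15% in size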
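FRET biosensor (snurportin 1 IBB flanked by EYFP and cerulean), 50 nM, with compound 5 min, then 0.125 microM importin beta in PBS, 1 mM DTT, 0.02% Tween-20, 0.1% BSA. CFP/YFP ratio read after 45 min at room temperature; pre-read flags interference.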
Starred values were filed as active, the others as inactive; & = joins results of further samples. The list is partial; the hit share may differ from the screen's.

`CCOC(=O)C1=C(C)NC(=O)NC1c1ccccc1OCc1c(F)cccc1Cl` (stereo unspecified) gave GLA inh pH 4.5 -10, miR-21 reporter 0%, Rango dissoc inh -2% and Rango complex inh -3.6%.
`O=S1(=O)C=CC(N2CCOCC2)C1` (stereo unspecified) gave GLA inh pH 4.5 -6, miR-21 reporter -10%, Rango dissoc inh -8% and Rango complex inh -1.3%.
`O=C1c2cccnc2Oc2ccc(Cl)cc2N1Cc1ccc(F)cc1` gave GLA inh pH 4.5 1, miR-21 reporter 0%, Rango dissoc inh 1% and Rango complex inh 0.6%.
Screening Cc1cc(C)c(C(=O)/C=C/c2ccc(C(C)C)cc2)c(=O)[nH]1 returned GLA inh pH 4.5 -18, miR-21 reporter inconclusive, Rango dissoc inh -9% and Rango complex inh 1.4%.
For Cc1nc2ccc(S(=O)(=O)N(C)CC(=O)NC(C)c3ccccc3)cc2s1 (stereo unspecified) the results were miR-21 reporter -3%, Rango dissoc inh 9% and Rango complex inh 0.2%.
Screening CN(C)S(=O)(=O)c1ccc(C(=O)NCCSc2ccc(Br)cc2)cc1 returned GLA inh pH 4.5 -3, miR-21 reporter -2%, Rango dissoc inh -1% and Rango complex inh 0.5%.
Screening O=C(Cc1ccccc1)NCCS(=O)(=O)N1CCN(c2cccc(Cl)c2)CC1 returned Rango dissoc inh -1% and Rango complex inh 1.1%.
For COc1ccc(N=C2NC(=O)/C(=C/C=C/c3ccccc3)S2)cc1 the results were GLA inh pH 4.5 -7, miR-21 reporter -6%, Rango dissoc inh -13% and Rango complex inh 1.9%.
`Cc1ccccc1C(=O)NNC(=O)c1ccc(Br)cc1` gave GLA inh pH 4.5 1, miR-21 reporter -37%, Rango dissoc inh -9% and Rango complex inh -0.4%.
`COc1cccc2c1OC1(C)CC2NC(=O)N1c1cccc(C(=O)N2CCN(c3ccccn3)CC2)c1` (stereo unspecified) gave GLA inh pH 4.5 5, miR-21 reporter -4%, Rango dissoc inh 8% and Rango complex inh -2.4%.
Screening CCCCN(C(=O)c1ccc(N2CCCC2=O)cc1)c1c(N)n(CCCC)c(=O)[nH]c1=O returned Rango dissoc inh 3% and Rango complex inh 5.2%.
CN(C)/C=C/C(=O)c1ccc([N+](=O)[O-])c(CS(=O)(=O)c2ccccc2)c1 was read as miR-21 reporter 0%, Rango dissoc inh -5% and Rango complex inh 2.6%.
COc1ccc(/C=N/NC(=O)c2ccc3c(c2)OCO3)cc1 was read as miR-21 reporter -14%, Rango dissoc inh -7% and Rango complex inh 1.9%.
For O=C1/C(=C/c2ccccc2)Nc2ccccc21 the results were GLA inh pH 4.5 4, miR-21 reporter -8%, Rango dissoc inh inconclusive and Rango complex inh inconclusive.
`COc1cccc(OC)c1C(=O)N1CC(C)OC(C)C1` (stereo unspecified) gave GLA inh pH 4.5 -9, miR-21 reporter -3%, Rango dissoc inh 9% and Rango complex inh 5.7%.
O=C(CSc1ccccc1)N1CCN(S(=O)(=O)c2ccccc2)CC1 was read as miR-21 reporter -6%, Rango dissoc inh -6% and Rango complex inh -0.9%.
For Cc1cc(C)nc(NC(=NCc2ccc3c(c2)OCO3)NC(=O)Nc2ccccc2)n1 the results were GLA inh pH 4.5 5, miR-21 reporter 8%, Rango dissoc inh 11% and Rango complex inh 2.3%.
Screening Cc1cc(NC(=O)CN2CCC(C)CC2)no1 returned GLA inh pH 4.5 1, miR-21 reporter -2%, Rango dissoc inh 2% and Rango complex inh 5.5%.
Screening Oc1ccc(Nc2ccnc3cc(Cl)ccc23)cc1 returned GLA inh pH 4.5 -12, miR-21 reporter -37%, Rango dissoc inh 0% and Rango complex inh 0.1%.
`Cc1cc(C)c(OCC(=O)OCC(=O)NCC2CCCCC2)c(C)c1` gave Rango dissoc inh -11% and Rango complex inh -4.6%.

A draw from above in order of formula weight, smallest number first.
`O=S1(=O)C=CC(N2CCOCC2)C1` (stereo unspecified) gave GLA inh pH 4.5 -6, miR-21 reporter -10%, Rango dissoc inh -8% and Rango complex inh -1.3%.
Screening Cc1cc(NC(=O)CN2CCC(C)CC2)no1 returned GLA inh pH 4.5 1, miR-21 reporter -2%, Rango dissoc inh 2% and Rango complex inh 5.5%.
Screening O=C(Cc1ccccc1)NCCS(=O)(=O)N1CCN(c2cccc(Cl)c2)CC1 returned Rango dissoc inh -1% and Rango complex inh 1.1%.
Screening CN(C)S(=O)(=O)c1ccc(C(=O)NCCSc2ccc(Br)cc2)cc1 returned GLA inh pH 4.5 -3, miR-21 reporter -2%, Rango dissoc inh -1% and Rango complex inh 0.5%.

(more compounds)
For Cc1ccc(N(CC(=O)NC2CCCCC2)C(=O)c2ccc(C)s2)cc1 the results were GLA inh pH 4.5 22, miR-21 reporter 1%, Rango dissoc inh 1% and Rango complex inh -1.1%.
For CNC(=O)NC(=O)C(c1ccccc1)N(C)CC1COc2ccccc2O1 (stereo unspecified) the results were miR-21 reporter 1%, Rango dissoc inh -1% and Rango complex inh -0.1%.
For CCOC(=O)C1=C(N)n2c(s/c(=C/c3ccco3)c2=O)=C(C(=O)OC)C1c1ccco1 (stereo unspecified) the results were GLA inh pH 4.5 -16, miR-21 reporter 16%, Rango dissoc inh inconclusive and Rango complex inh inconclusive.
For COc1ccc(C2=Nn3c(nnc3-c3ccccc3Cl)SC2)cc1OCC1CC1 the results were Rango dissoc inh -4% and Rango complex inh inconclusive.
For CC(=Nc1ccc(C)cc1)c1sc2ccccc2c1O the results were GLA inh pH 4.5 -26, miR-21 reporter -25%, Rango dissoc inh inconclusive and Rango complex inh inconclusive.
`CC1(C)CC(=O)C(Sc2nnc(-c3ccc(NS(C)(=O)=O)cc3)n2Cc2ccco2)C(=O)C1` gave GLA inh pH 4.5 -5, miR-21 reporter -9%, Rango dissoc inh -2% and Rango complex inh -1.4%.
Nc1nc(F)nc2c1ncn2[C@@H]1O[C@H](CO)[C@@H](O)[C@@H]1O was read as GLA inh pH 4.5 1, miR-21 reporter -2%, Rango dissoc inh 4% and Rango complex inh -0.3%.
`CC(=O)c1cccc(NC(=O)CN2C(=O)NC(C)(c3ccc4c(c3)OCCCO4)C2=O)c1` (stereo unspecified) gave Rango dissoc inh -6% and Rango complex inh 0.7%.
N#CCCN(C(=O)CSc1nc2ccccc2c(=O)[nH]1)c1ccc(F)cc1 was read as Rango dissoc inh 32% and Rango complex inh -1.4%.
COC(=O)c1cccc(-n2nnnc2SCC(=O)Nc2cc(C)on2)c1 was read as GLA inh pH 4.5 2, miR-21 reporter 0%, Rango dissoc inh 31% and Rango complex inh -0.3%.
For CC(=O)NCCCCCCNC(C)=O the results were GLA inh pH 4.5 -6, miR-21 reporter -3%&-1%, Rango dissoc inh -4% and Rango complex inh 0.4%.
Screening CCOC(=O)C1=NN(c2ccccc2)C2C(=O)N(c3ccccc3OC)C(=O)C12 (stereo unspecified) returned GLA inh pH 4.5 -16, miR-21 reporter 0%, Rango dissoc inh -13% and Rango complex inh inconclusive.
For CCc1noc(C)c1C(=O)N(CCOC)c1c(N)n(CC(C)C)c(=O)[nH]c1=O the results were miR-21 reporter 0%, Rango dissoc inh -4% and Rango complex inh -4.8%.
O=C(c1ccccc1)N1CCOC(O)(c2ccccc2)C1c1ccccc1 (stereo unspecified) was read as Rango dissoc inh 15% and Rango complex inh 1.5%.
NCCCC[C@H]1CNC(=O)C(=O)N1CCc1cc(C(F)(F)F)cc(C(F)(F)F)c1 was read as GLA inh pH 4.5 2, miR-21 reporter -1%, Rango dissoc inh -13% and Rango complex inh 1.4%.
For COc1cccc(/C(O)=C/C(=O)C(=O)Nc2ccc(S(=O)(=O)NC(C)=O)cc2)c1 the results were GLA inh pH 4.5 3, miR-21 reporter -3%, Rango dissoc inh 7% and Rango complex inh 0.6%.
`CC1CCN(C(=O)c2cc3ccccc3c(=O)o2)CC1` gave GLA inh pH 4.5 1, miR-21 reporter -49%, Rango dissoc inh -13% and Rango complex inh -0.9%.
`Cc1ccc(NC(=O)CCN2C(=O)c3ccccc3C2=O)cc1C` gave miR-21 reporter -2%, Rango dissoc inh -14% and Rango complex inh 0.1%.
CCN(CC)C(=O)N1CCc2ccccc21 was read as GLA inh pH 4.5 0, miR-21 reporter -2%, Rango dissoc inh 0% and Rango complex inh 0.0%.
COc1cccc(CN(C)Cc2nc(Cc3ccccc3Cl)no2)c1 was read as GLA inh pH 4.5 0, miR-21 reporter -7%, Rango dissoc inh -1% and Rango complex inh 0.2%.
OC(COCC(F)(F)C(F)(F)C(F)(F)C(F)F)Cn1c2ccccc2c2ccccc21 (stereo unspecified) was read as GLA inh pH 4.5 0, miR-21 reporter 14%, Rango dissoc inh 45% and Rango complex inh 7.5%.
COCCCNS(=O)(=O)c1cc2c3c(c1)C(C)C(=O)N3CCC2 (stereo unspecified) was read as miR-21 reporter 3%, Rango dissoc inh -3% and Rango complex inh -1.2%.
CCOc1ccc(-c2cc3cc(OC)c(OC)cc3c(C)n2)cc1 was read as GLA inh pH 4.5 -8, miR-21 reporter -6%, Rango dissoc inh 1% and Rango complex inh 0.4%.
O=C(CSc1nnc(NCc2ccccc2)s1)NC1CCS(=O)(=O)C1 (stereo unspecified) was read as GLA inh pH 4.5 5, miR-21 reporter 0%, Rango dissoc inh 1% and Rango complex inh 2.6%.
Screening Cc1nc2ccc(NC(=O)c3cc([N+](=O)[O-])cc([N+](=O)[O-])c3Cl)cc2s1 returned GLA inh pH 4.5 0, miR-21 reporter -3%, Rango dissoc inh -23% and Rango complex inh -2.5%.
For Cc1ccc(C2(C)NC(=O)N(CC(=O)NCCC3=CCCCC3)C2=O)cc1 (stereo unspecified) the results were GLA inh pH 4.5 -4, miR-21 reporter 8%, Rango dissoc inh 17% and Rango complex inh 2.3%.
`O=c1cc(Nc2ccc3c(c2)OCCO3)[nH]c(=O)n1C1CCCCC1` gave GLA inh pH 4.5 -1, miR-21 reporter 12%, Rango dissoc inh 0% and Rango complex inh -0.5%.
CC(C)(C)c1ccc(C(=O)C2CCCN(C(=O)CN3CCCC3=O)C2)cc1 (stereo unspecified) was read as GLA inh pH 4.5 3, miR-21 reporter -4%, Rango dissoc inh -8% and Rango complex inh 1.0%.
CC(=O)Nc1cccc(-c2nnc(SCc3ccccc3C#N)n2C)c1 was read as GLA inh pH 4.5 -3, miR-21 reporter -12%, Rango dissoc inh 3% and Rango complex inh -5.2%.
`CCC(Sc1ccccn1)C(=O)Nc1nnc(C)s1` (stereo unspecified) gave GLA inh pH 4.5 -8, miR-21 reporter -1%, Rango dissoc inh -8% and Rango complex inh -4.6%.
For O=C(COc1ccccc1C(=O)NCc1ccccc1)Nc1ccccc1 the results were Rango dissoc inh 19% and Rango complex inh -0.8%.
Screening COc1ccc(C(=O)N2CCN(c3cccc(C)c3C)CC2)cc1S(=O)(=O)NC1CC1 returned Rango dissoc inh 1% and Rango complex inh 0.5%.
CC(=O)NNc1ncnc2c1cnn2-c1ccccc1 was read as GLA inh pH 4.5 3, miR-21 reporter 0%&4%, Rango dissoc inh 6% and Rango complex inh -1.2%.
`Cc1cccc(OCc2nn[nH]n2)c1C` gave miR-21 reporter -2%, Rango dissoc inh -4% and Rango complex inh 6.2%.
O=C(O)C1C(c2ccccc2)C(C(=O)Oc2ccc(O)cc2)C1c1ccccc1 (stereo unspecified) was read as GLA inh pH 4.5 0, miR-21 reporter -1%, Rango dissoc inh 4% and Rango complex inh 1.1%.
COc1ccc(C(=O)Nc2sc(C)c(C)c2CN2CCOCC2)cc1 was read as GLA inh pH 4.5 -1, miR-21 reporter -58%, Rango dissoc inh 27% and Rango complex inh -0.8%.
`CCOCCCNc1nc2nc3ccc(C)cn3c(=O)c2cc1C(=O)NCC1CCCO1` (stereo unspecified) gave GLA inh pH 4.5 2, miR-21 reporter -8%, Rango dissoc inh inconclusive and Rango complex inh inconclusive.
`C=C1C[C@@]23CCC4[C@@](C)(CCC[C@@]4(C)C(=O)OC)C2CC[C@]1(OC(C)=O)C3` (stereo partly specified) gave Rango dissoc inh 13% and Rango complex inh 2.6%.
`COC(=O)Cn1c(Cc2ccccc2)nc2ccccc21` gave miR-21 reporter -4%, Rango dissoc inh -7% and Rango complex inh 1.6%.
